# MLL AF4-AF9 inh = inhibitors of human MLL-AF4/AF9 interaction; P42568; AlphaScreen, biotin-AF4 peptide binding to FLAG-AF9; inhibition, % at 10 µM; actives 0.47% (n = 350,000);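 active = every replicate reaching a set inhibition limit, whatever the replicate mean, cut at about 25% in these data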;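 also: 0% = plate neutral control median and 100% = total signal loss; the record names both 10 and 1 µM as test concentration; the first replicate is given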
# Target sequence (P42568 whole entry, looked up): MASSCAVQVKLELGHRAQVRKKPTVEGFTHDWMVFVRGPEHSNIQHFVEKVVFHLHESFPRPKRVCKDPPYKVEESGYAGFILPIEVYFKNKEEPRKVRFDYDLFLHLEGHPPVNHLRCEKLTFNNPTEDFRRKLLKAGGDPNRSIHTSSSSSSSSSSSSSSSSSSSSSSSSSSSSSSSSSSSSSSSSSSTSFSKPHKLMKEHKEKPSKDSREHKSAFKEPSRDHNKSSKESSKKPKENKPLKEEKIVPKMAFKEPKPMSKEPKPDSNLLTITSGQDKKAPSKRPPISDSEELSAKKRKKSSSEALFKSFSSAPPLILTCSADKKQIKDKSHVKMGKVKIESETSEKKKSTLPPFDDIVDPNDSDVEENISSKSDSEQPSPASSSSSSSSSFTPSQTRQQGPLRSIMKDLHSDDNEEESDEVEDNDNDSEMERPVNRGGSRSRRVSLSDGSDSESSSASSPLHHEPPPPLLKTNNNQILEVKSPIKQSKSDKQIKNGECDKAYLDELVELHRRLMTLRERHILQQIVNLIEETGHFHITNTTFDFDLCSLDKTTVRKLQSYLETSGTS
# Active calls of the source: *; & = joins results of further samples. Only part of the results is shown, so the mix of outcomes need not match the whole.
no.	MLL AF4-AF9 inh	smiles
1	1.0	O=C(Nc1ccn(CCCNCC2CCCO2)c(=O)n1)OCc1ccccc1 (centres undefined)
2	-2.4	COc1cccc(S(=O)(=O)Nc2ccc3c(c2)OC[C@H](C)NC[C@@H](C)[C@H](OC)CN(C)C3=O)c1
3	-1.8	C[C@@H]1CN([C@H](C)CO)C(=O)c2cc(C#CC3CCCC3)cnc2O[C@@H]1CN(C)C(=O)Nc1ccccc1
4	1.2	CCc1nc2ccc(C(=O)NCc3cccs3)cn2c1N(CC)CCOC
5	1.7	CC(C)C[C@@H]1COc2cccc(N3CCSCC3)c2S(=O)(=O)N1
6	2.6	COc1ccc2c3c(n(C)c2c1)[C@@H](CO)N(S(C)(=O)=O)CC31CCN(C(=O)Nc2cccc(F)c2)CC1
7	-3.6	CCC(=O)N1CC2(C1)CN(Cc1ccccc1Cl)[C@H](CO)c1[nH]c3cc(OC)ccc3c12
8	-1.7	O=C(Cc1ccccn1)NCC[C@H]1CC[C@@H](NS(=O)(=O)c2ccc(F)cc2)[C@@H](CO)O1
9	-5.4	O=C(c1cccc(F)c1)N1CCCCN2[C@H](C1)[C@@H](c1ccc(-c3ccncc3)cc1)[C@@H]2CO
10	-5.4	C/C=C/c1cnc2c(c1)C(=O)N([C@@H](C)CO)C[C@@H](C)[C@@H](CN(C)CC1CCOCC1)O2
11	0.0	COCC1CN(CCc2ccc(F)cc2)S(=O)(=O)c2c(OCCN3C(=O)[C@@H]4[C@H](C3=O)[C@@H]3C=C[C@H]4C3)cccc2O1 (some centres undefined)
12	-3.3	Cc1ccc(S(=O)(=O)Nc2ccc3c(c2)C(=O)N([C@@H](C)CO)C[C@@H](C)[C@H](CN(C)C(=O)NC2CCCCC2)OCCCC[C@H](C)O3)cc1
13	-1.9	CO[C@H]1CN(C)C(=O)c2cc(NS(=O)(=O)c3ccccc3C)ccc2OC[C@@H](C)N(S(C)(=O)=O)C[C@@H]1C
14	-2.5	C[C@@H]1CN([C@@H](C)CO)S(=O)(=O)c2ccc(C3=CCCC3)cc2O[C@@H]1CN(C)Cc1cncnc1
15	2.7	COc1cccc(C(=O)Nc2ccc3c(c2)OC[C@H](C)N(CCc2ccccc2)C[C@@H](C)[C@H](OC)CN(C)C3=O)c1
16	-48	CCCCc1nc2sc3c(=O)[nH]c(=S)[nH]c3c2c2c1CCC2
17	-9.4	COc1ccccc1S(=O)(=O)N[C@H]1C=C[C@@H](CC(=O)N2CCCCC2)O[C@@H]1CO
18	-2.5	COc1ccc(NC(=O)Nc2cccc3c2O[C@@H](CN(C)Cc2ccc(C(=O)O)cc2)[C@@H](C)CN([C@@H](C)CO)C3=O)cc1
19	-2.9	CO[C@@H]1CN(C)C(=O)c2ccc(NC(=O)Nc3c(C)noc3C)cc2OC[C@H](C)N(CC2CC2)C[C@H]1C
20	-2.4	C[C@@H]1CN([C@H](C)CO)C(=O)c2cc(NS(=O)(=O)c3ccccc3)ccc2O[C@@H]1CN(C)C(=O)NC1CCCCC1
21	0.0	CN(CCO)C(=O)c1nc[nH]c1C(=O)N1CCN(c2ccccc2)CC1
22	0.3	Cc1noc(C)c1NC(=O)N(C)C[C@@H]1Oc2ccc(NS(=O)(=O)c3ccccc3)cc2CC(=O)N([C@H](C)CO)C[C@@H]1C
23	-2.9	CN1C(=O)c2cc(NC(=O)Cc3cccs3)ccc2OC[C@@H]2O[C@@H](CC(=O)NCC3CCCCC3)CC[C@@H]21
24	-1.1	C[C@@H]1CN([C@H](C)CO)C(=O)Cc2cc(NC(=O)Nc3ccc(F)cc3)ccc2O[C@@H]1CN(C)C(=O)Nc1ccc(F)cc1
25	-0.8	O=C(c1ccc2c(c1)OCO2)N1CC[C@@H]2[C@H]1c1cc(-c3ccc(F)cc3)ccc1N[C@@H]2CO
26	4.9	CC(C)NC(=O)Nc1ccc2c(c1)C(=O)N([C@@H](C)CO)C[C@@H](C)[C@H](CN(C)Cc1ccc(C(F)(F)F)cc1)OCCCC[C@H](C)O2
27	-4.4	COC(=O)[C@H]1[C@H](CO)[C@H]2Cn3c(cccc3=O)[C@H]2N1CC1CCOCC1
28	3.0	COc1ccccc1NC(=O)N1CC(=O)N2[C@H](CO)[C@H](c3ccc(C#CC4CC4)cc3)[C@H]2C1
29	1.4&-0.5	COC(=O)N(C)C[C@@H]1OCc2cnnn2CCCC(=O)N([C@H](C)CO)C[C@H]1C
30	1.4	CC1(Oc2ccccc2-c2ccno2)CCN(Cc2ccc(-c3ccccc3)o2)C1 (centres undefined)
31	-3.9	CCCCOc1ccc(S(=O)(=O)NC(=O)C2(C)CCN2C(=O)CCc2ccccc2)cc1 (centres undefined)
32	5.6	CC(C)C#Cc1ccc2c(c1)O[C@@H](CN(C)Cc1ccncc1)[C@@H](C)CN([C@H](C)CO)S2(=O)=O
33	13	O=C(O)c1ccc(NC2=C/C(=N/S(=O)(=O)c3cccs3)c3ccccc3C2=O)cc1
34	-1.0	CCCC(=O)Nc1ccc2c(c1)C(=O)N(C)[C@H]1CC[C@@H](CC(=O)NCc3cccc(F)c3)O[C@H]1CO2
35	-3.2	CO[C@H]1CN(C)C(=O)c2cc(NC(=O)c3cnccn3)ccc2OC[C@@H](C)N(C(C)=O)C[C@H]1C
36	-9.3	Nc1c(/C=C2/C=CC(=O)C(O)=C2)c(=O)nc2sc(CC(=O)N3CCOCC3)nn12
37	-0.3	CNC(=O)C[C@H]1CC[C@@H]2[C@H](COC[C@@H](O)CN2C(=O)Nc2cccc(OC)c2)O1
38	2.3	CN(C)c1ccc(-c2csc(C(O)(c3ccccc3)C(F)(F)F)n2)cc1 (centres undefined)
39	0.7	COc1cccc(CNc2nc(NCC3CC3)nc3ccsc23)c1
40	-2.4	O=C(C[C@@H]1CC[C@@H](NC(=O)Nc2ccccc2F)[C@@H](CO)O1)NCc1ccc(F)cc1
41	1.3	CC(=O)N1[C@@H](CO)[C@@H](c2ccccc2)C12CN(Cc1ccccc1)C2
42	-4.3	O=C(Nc1ccc2c(c1)[C@H]1C[C@H](CC(=O)N3CCc4ccccc4C3)O[C@H](CO)[C@H]1O2)C1CCOCC1
43	-4.4	C[C@@H](O)C#Cc1ccc([C@H]2[C@@H](CO)N3CCCCN(C(=O)c4ccc(F)cc4)C[C@H]23)cc1
44	-5.8	COc1cccc(C(=O)Nc2ccc3c(c2)OC[C@H](C)NC[C@H](C)[C@@H](OC)CN(C)C3=O)c1
45	-3.1	C[C@@H]1CCCCO[C@@H](CN(C)C(=O)Nc2cccc3ccccc23)[C@H](C)CN([C@H](C)CO)C(=O)c2cc(NC(=O)c3ccncc3)ccc2O1
46	1.2	CC(C)NC(=O)Nc1ccc2c(c1)C(=O)N([C@@H](C)CO)C[C@@H](C)[C@@H](CN(C)S(=O)(=O)c1ccc(F)cc1)OCCCC[C@@H](C)O2
47	5.2	CC(C)=C(C)c1cc2nc(NCCCN(C)C)n(C)c(=O)c2s1
48	-3.8	O=C(C[C@H]1C[C@H]2c3cc(NC(=O)CC4CC4)ccc3O[C@H]2[C@@H](CO)O1)NCc1ccccn1
49	-5.7	COC(=O)c1cc2c(c3c4cc(F)ccc4n(S(=O)(=O)c4cccc(C)c4)c13)C(=O)N(Cc1ccc(C(F)(F)F)cc1)C2
50	-1.6	CN(C)CCCNC(=O)C[C@@H]1C=C[C@@H](NC(=O)c2ccccc2F)[C@@H](CO)O1
51	1.2	O=C1CNC[C@H]2[C@@H](c3ccc(C#CC4CCCC4)cc3)[C@H](CO)N12
52	1.2	C[C@@H]1CN([C@H](C)CO)S(=O)(=O)c2ccc(-c3ccc(C#N)cc3)cc2O[C@@H]1CN(C)CC1CC1
53	-4.5	CC1CN(C(=O)c2cccc(NS(=O)(=O)c3ccc(Br)cc3)c2)CC(C)O1 (centres undefined)
54	-3.4	CN(C)C(=O)[C@H]1[C@H](CO)[C@H]2Cn3c(cccc3=O)[C@@H]1N2CC1CCCC1
55	3.0	CO[C@H]1CN(C)C(=O)c2ccc(NC(=O)C3CCC3)cc2OC[C@@H](C)N(CC2CCCCC2)C[C@@H]1C
56	4.0	COc1ccc(-c2ccc3c(c2)O[C@@H](CN(C)Cc2ccccc2C(=O)O)[C@H](C)CN([C@@H](C)CO)S3(=O)=O)cc1
57	-5.4	C[C@H]1CN([C@@H](C)CO)C(=O)c2cc(C#CC3(O)CCCC3)cnc2O[C@@H]1CN(C)S(=O)(=O)c1ccc(F)cc1
58	1.9	O=C(NC1Cc2ccccc2C1)[C@H]1N[C@H]2c3ccc(C4=CCCC4)c(=O)n3C[C@H]2[C@@H]1CO
59	-3.4	C[C@@H]1CN([C@@H](C)CO)C(=O)c2cccc(NC(=O)C3CCOCC3)c2O[C@@H]1CN(C)S(=O)(=O)c1ccc(Cl)cc1
60	-2.0	C[C@@H]1CN([C@@H](C)CO)C(=O)c2cc(-c3ccncc3)cnc2O[C@@H]1CN(C)C(=O)C1CCCCC1

# Going on with the list:
no.	MLL AF4-AF9 inh	smiles
61	0.3	CC(C)NC(=O)N(C)C[C@@H]1Oc2ccc(NC(=O)Nc3ccc4c(c3)OCO4)cc2CC(=O)N([C@@H](C)CO)C[C@H]1C
62	-4.0	CC1(Cc2ccc(F)cc2)C(=O)Nc2c(Cl)cccc21 (centres undefined)
63	-1.1	C[C@H](CO)N1C[C@H](C)[C@H](CN(C)C(=O)NC2CCCCC2)Oc2ccc(NC(=O)Cn3cnnn3)cc2CC1=O
64	1.9	C[C@H](O)C#Cc1cnc2c(c1)C(=O)N([C@H](C)CO)C[C@H](C)[C@@H](CN(C)C(=O)Cc1ccncc1)O2
65	-0.2	O=C(NCC1CCN(C(=O)C(=O)c2cc3ccccc3o2)CC1)c1ccc2c(c1)OCO2
66	-2.6	O=C(C[C@@H]1CC[C@H]2[C@@H](COC[C@@H](O)CN2S(=O)(=O)c2ccccc2)O1)Nc1ccc(-c2ccccc2)cc1
67	1.1	CO[C@H]1CN(C)C(=O)c2cc(NC(C)=O)ccc2OC[C@H](C)N(C(=O)C2CCOCC2)C[C@H]1C
68	-1.5	CCN(CC)CCSc1nc2c([nH]1)c(=S)n(C)c(=O)n2C
69	-4.7	C[C@H]1CN([C@@H](C)CO)C(=O)c2cc(C#CC(C)(C)O)cnc2O[C@H]1CN(C)C(=O)c1ccccc1F
70	-13	CO[C@@H]1CN(C)C(=O)c2cc(NS(=O)(=O)c3ccccc3)ccc2OC[C@H](C)N(C(=O)NC(C)C)C[C@H]1C
71	1.0	C[C@H](CO)N1C[C@H](C)[C@@H](CN(C)S(=O)(=O)c2ccc(Cl)cc2)Oc2ccc(NC(=O)CCC(F)(F)F)cc2CC1=O
72	3.7	C[C@H]1CN([C@@H](C)CO)C(=O)c2cccc(NC(=O)c3ccc(-c4nccs4)cc3)c2O[C@H]1CN(C)Cc1ccc(Cl)c(Cl)c1
73	-4.8	COc1ccc2c3c([nH]c2c1)[C@@H](CO)N(Cc1ccc(Cl)cc1)CC31CN(S(C)(=O)=O)C1
74	-0.8	COc1ccccc1NC(=O)N(C)C[C@@H]1OCc2cn(nn2)CCCC(=O)N([C@H](C)CO)C[C@@H]1C
75	-6.6	CNC[C@@H]1Oc2ncc(-c3ccccc3)cc2C(=O)N([C@H](C)CO)C[C@@H]1C
76	-1.8	CN1[C@@H]2c3ccc(-c4ccc(F)cc4)c(=O)n3C[C@H]1[C@H](CO)[C@H]2C(=O)N1CCCCC1
77	-4.1	COc1ccc(NC(=O)N[C@H]2CC[C@H](CC(=O)NC3CCC3)O[C@H]2CO)cc1
78	-4.0	C[C@@H]1CN([C@H](C)CO)C(=O)c2cccc(NS(=O)(=O)c3cccs3)c2O[C@@H]1CN(C)S(C)(=O)=O
79	0.1	COc1ccc2c3c([nH]c2c1)[C@H](CO)N(S(C)(=O)=O)CC31CCN(Cc2ccccc2)CC1
80	-0.8	C[C@@H]1CCCCO[C@@H](CN(C)Cc2ccc(C(F)(F)F)cc2)[C@H](C)CN([C@@H](C)CO)C(=O)c2cc(NS(=O)(=O)c3cn(C)cn3)ccc2O1
81	0.2	C[C@@H]1CN([C@@H](C)CO)C(=O)Cc2cc(NC(=O)Cc3cn(C)c4ccccc34)ccc2O[C@H]1CN(C)C(=O)Nc1ccc(C(F)(F)F)cc1
82	27*	COc1ccc2c3c([nH]c2c1)[C@@H](CO)N(S(C)(=O)=O)CC31CCN(Cc2cccc(F)c2)CC1
83	3.0	Cc1ccc(CNc2ncnc3ccc(-c4ccoc4C)cc23)o1
84	-7.1	CO[C@H](CN(C)C(=O)c1cnccn1)[C@@H](C)CN([C@H](C)CO)S(=O)(=O)c1ccc(C)cc1
85	0.7	C[C@H]1CN([C@@H](C)CO)C(=O)c2cc(NS(=O)(=O)c3ccc(F)cc3)ccc2O[C@H]1CN(C)Cc1ccc(Cl)c(Cl)c1
86	-3.9	N#C[C@H]1[C@H](c2ccc(C#Cc3cccc(F)c3)cc2)[C@H](CO)N1C(=O)C1CCCC1
